Source: PubChem BioAssay
rRNA inh HTS = inhibitors of bacterial rRNA selective over humanized ribosomes. 1.6% of 350,000 active. AID 720706. GFP signal change (wild-type ribosome), % (no concentration beside the values). E. coli WT GFP vs humanized-ribosome RFP mutants, fluorescence, 24 h; active compounds read low; DMSO median 0, no signal -100;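 active = significant combined selectivity score with lowered wild-type GFP, culture density cut under 30%, mutant RFP and density less affected; inactive = any of these conditions unmet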; also: one replicate is shown; some compounds called inactive have numbers as strong as hits
FGF22 binding = FGF22 (human) thermal shift binding. Q9HCT0. recombinant FGF22 thermal shift, SYPRO orange fluorescence; percent of sucrose octasulfate shift, DMSO zero. calls only at 9.99 µM. 1.5% of 340,000 active. AID 651658;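 active = melting point raised past a set limit in the mean and every replicate; inconclusive = no clear call; three in four hits are not shown here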
Target sequence (Q9HCT0 whole entry, looked up): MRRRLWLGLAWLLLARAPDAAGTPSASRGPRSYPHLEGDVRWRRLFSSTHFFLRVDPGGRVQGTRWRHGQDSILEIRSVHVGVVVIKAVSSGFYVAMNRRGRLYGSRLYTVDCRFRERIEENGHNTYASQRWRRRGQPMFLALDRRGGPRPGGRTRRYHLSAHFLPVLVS
T cruzi inh = T. cruzi replication inhibition. 1.4% of 300,000 active. AID 1885. T. cruzi beta-gal in NIH3T3, luminescence, 90 h. inhibition, % (test concentration not listed);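 active = mean inhibition across valid replicates above about 55%, limit read from the data; inconclusive = mean below that limit but half or more replicates reach it; inactive = mean below it, under half of replicates reach it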;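 also: signal also drops with host cell toxicity which is not excluded here; 0% = plate median of DMSO wells and 100% = zero luminescence signal; higher percent means less beta-gal luminescence so fewer parasites; stock transfer was 50 nL into about 50 µL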
E coli growth = E. coli growth inhibition | OD600 absorbance (test concentration not listed) | Escherichia coli growth, OD600, 23 h; active compounds read low | AID 1053175 | 0.21% of 330,000 active;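 active = OD600 absorbance below the run mean of sample wells minus 3.6 SD, in any replicate, cut at about 0.56 in these data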;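 also: stock transfer was 300 nL into about 60 µL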
Beta cell apopt = beta cell apoptosis inhibition; INS-1E cytokine-induced death, ATP luminescence, 48 h; percent of positive-control rescue, neutral wells zero; protection from apoptosis, % (test concentration not listed); 0.8% of 300,000 active; AID 435005;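 active = all replicates at 75% or more, or half of them and the mean; inconclusive = half reach 75% but not the mean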;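 also: 0% = cytokine-treated negative control wells and 100% = positive control rescue; higher means more ATP so stronger rescue from cytokine killing; wells of about 40 µL received 100 nL stock; the first replicate is given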
UCH37 inh = human UCH37 deubiquitinating enzyme inhibition; 0.33% of 330,000 active; purified proteasome/UCH37, Ub-AMC cleavage fluorescence; Q9Y5K5; inhibition, % (concentration not given with the values);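 active = mean of two replicates above 20%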;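 also: 0% = compound-free wells with enzyme and 100% = wells lacking proteasome; stock transfer was 100 nL into about 20 µL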
Target sequence (Q9Y5K5 whole entry, looked up): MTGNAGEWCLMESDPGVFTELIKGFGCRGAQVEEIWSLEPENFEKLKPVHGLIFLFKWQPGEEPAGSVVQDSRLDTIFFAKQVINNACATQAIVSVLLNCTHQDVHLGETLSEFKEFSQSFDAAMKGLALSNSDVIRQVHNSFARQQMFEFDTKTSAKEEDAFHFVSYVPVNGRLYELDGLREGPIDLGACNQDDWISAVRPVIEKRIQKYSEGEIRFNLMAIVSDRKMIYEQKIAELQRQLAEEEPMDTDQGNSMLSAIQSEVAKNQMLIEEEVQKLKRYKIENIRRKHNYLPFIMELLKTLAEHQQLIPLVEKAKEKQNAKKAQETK
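Material: Human UCH37 enzyme supplied as purified proteasome complex | Schedule: 30 min compound-proteasome preincubation then 25 min substrate reaction, room temperature | Detection: AMC fluorescence from Ub-AMC cleavage, excitation 355 nm, emission 460 nm | Benchmarks: Wells without proteasome as full block, compound-free enzyme plus substrate as uninhibited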
A1 inh = inhibitors of the anti-apoptotic protein A1, read as caspase activation. MEF A1-2A-BIM cells, Caspase-Glo 3/7 luminescence, 3 h; percent of clofoctol response, vehicle zero. 0.066% of 330,000 active. caspase activation, % (concentration not given with the values);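 active = over half of replicate activation scores above 10%, or exactly half above 10 with the replicate mean above 10; inconclusive = replicate mean below 10 yet half the replicates above 10; inactive = over half of replicates below 10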;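 also: wells of about 30 µL received 50 nL stock; many hits fall short of the cut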
AF4-AF9 inh = MLL-AF4/AF9 protein interaction inhibition | P42568 | AlphaScreen, biotin-AF4 peptide binding to FLAG-AF9 | inhibition, % at 10 µM | 0.47% of 350,000 active | AID 651704;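 active = every replicate reaching a set inhibition limit, whatever the replicate mean, cut at about 25% in these data; inconclusive = mean inhibition reaches that limit but some replicates miss it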;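 also: 0% = plate neutral control median and 100% = total signal loss; the record names both 10 and 1 µM as test concentration; the first replicate is given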
Target sequence (P42568 whole entry, looked up): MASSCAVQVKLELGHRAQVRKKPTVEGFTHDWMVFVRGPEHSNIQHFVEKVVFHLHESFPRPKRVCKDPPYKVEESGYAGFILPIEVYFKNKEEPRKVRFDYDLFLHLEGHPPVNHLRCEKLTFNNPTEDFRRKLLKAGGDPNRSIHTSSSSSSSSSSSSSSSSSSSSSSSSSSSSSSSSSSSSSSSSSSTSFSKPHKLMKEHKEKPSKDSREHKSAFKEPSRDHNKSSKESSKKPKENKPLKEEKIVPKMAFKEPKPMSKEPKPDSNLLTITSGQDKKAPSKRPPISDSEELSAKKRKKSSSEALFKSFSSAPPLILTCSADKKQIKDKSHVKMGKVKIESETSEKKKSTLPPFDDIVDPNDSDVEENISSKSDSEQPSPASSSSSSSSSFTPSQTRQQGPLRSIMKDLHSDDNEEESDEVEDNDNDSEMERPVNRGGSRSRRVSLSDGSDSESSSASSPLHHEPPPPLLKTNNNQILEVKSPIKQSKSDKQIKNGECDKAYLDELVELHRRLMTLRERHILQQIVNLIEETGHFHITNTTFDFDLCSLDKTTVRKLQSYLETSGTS
rRNA inh HTS OD600 = further read-out of rRNA inh HTS, marked with its call; OD600 change, %; measured here: OD600 growth;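 optical density of the mix in the first replicate; 0 = DMSO median and -100 = no signal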
rRNA inh HTS RFP = second read-out of rRNA inh HTS, no call of its own (marks repeat the call); RFP signal change, %; measured here: RFP humanized mutant strains;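 first replicate; 0 = DMSO median and -100 = no signal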
* marks the source's active call; other numbers are inactive results; i = inactive; ? = inconclusive; . = no result given. A portion of the library; rates above refer to the full screens.

item	Molecule	rRNA inh HTS	rRNA inh HTS OD600	rRNA inh HTS RFP	FGF22 binding	T cruzi inh	E coli growth	Beta cell apopt	UCH37 inh	A1 inh	AF4-AF9 inh
1	Cc1cc(C)n(CC(=O)N2c3ccccc3Sc3ccccc32)n1	.	.	.	.	14	0.7	3	3.8	0.4	.
2	Cc1cc(C)n(-c2ccc(C(=O)Nc3cccc(S(=O)(=O)N4CCCC4)c3)cc2)n1	3	6	2.0	i	-18	0.69	3	-0.1	0.3	-1.7
3	CCOC(=O)CN1C(=O)S/C(=C\c2ccc3c(c2)OCO3)C1=O	-18	-15	-3.0	i	-6	0.68	.	0.3	-2.3	-0.1
4	Cc1ccc(OCc2ccoc2C(=O)O)cc1C	.	.	.	.	7	0.76	-1	1.8	-1.2	.
5	COC(=O)[C@@H]1CCCN1C(=O)c1ccc(OC2CCN(Cc3ccccn3)CC2)cc1	2	6	-2.3	i	-14	0.62	-1	1.1	0.0	0.7
6	Cc1cc(C(=O)Nc2cc(Br)ccc2O)on1	-16	-15	-3.1	i	-10	0.65	.	3.5	-0.8	2.4
7	N#Cc1c(NC(=O)CSc2n[nH]c(Cc3ccccc3)n2)oc(-c2ccccc2)c1-c1ccccc1	.	.	.	.	-2	0.79	.	5.3	0.6	.
8	Cc1cc(C(=O)N2CCN(c3ccccc3O)CC2)c(C)o1	4	7	0.5	i	-4	0.7	1	2.3	0.1	1.3
9	Cc1ccccc1OCCN(C#N)c1nc(N(C)C)nc(N(C)C)n1	-5	-23	1.1	i	5	0.71	4	4.5	0.2	-3.0
10	COc1ccc(OC)c(S(=O)(=O)N2CCCC2C(=O)N2CCc3ccccc3C2)c1 (stereo not given)	7	7	-0.5	i	-4	0.68	-4	2.2	0.4	-36
11	O=C(CCNS(=O)(=O)c1ccccc1)N1CCCCCCC1	2	4	-1.7	i	-3	0.68	3	5.3	-0.1	-5.2
12	Cc1cccc(-c2nnc(SCc3nc4ccccc4[nH]3)n2Cc2ccco2)c1	.	.	.	.	0	0.7	-6	0.6	0.4	.
13	Cc1ccccc1CNC(=O)c1ccc2nc(N3CCOCC3)sc2c1	-2	-17	-5.9	i	7	0.76	3	4.1	-0.1	1.5
14	CC(=O)c1cccc(N=Nc2c(-c3ccccc3)[nH]n(-c3ccccc3)c2=O)c1	6	8	1.2	i	-11	0.68	5	6.5	0.6	-0.2
15	COc1cccc(C(=O)NC(=S)Nc2ccc3oc(=O)ccc3c2)c1	25	18	5.1	i	-14	0.74	-1	5.7	2.1	2.6
16	COc1cccc(CC(=O)OCC(=O)Nc2c(C)nn(-c3ccccc3)c2C)c1	2	7	3.6	i	.	0.7	.	-0.9	.	2.7
17	O=C(NCC(=O)N1CCC2(CC1)NCCc1[nH]cnc12)c1ccc(Br)cc1	6	14	-0.6	i	1	0.67	-1	-0.8	0.3	2.1
18	O=C(Cc1ccc(Cl)cc1)Nc1ccccc1N1CCN(C(=O)c2ccccc2)CC1	-36	-69	-1.2	i	5	0.73	2	6.6	-0.4	1.2
19	CC(C)CN(C(=O)CCNC(=O)c1ccc(Cl)cc1)c1c(N)n(CC(C)C)c(=O)[nH]c1=O	14	19	4.2	i	.	0.72	-2	3.1	1.3	-2.3
20	COc1cc2cc(C(c3nnnn3Cc3ccc(F)cc3)N3CCCCCC3)c(=O)[nH]c2cc1OC (stereo not given)	12	8	7.3	i	6	0.74	.	-57	0.1	?

Continued.
item	Molecule	rRNA inh HTS	rRNA inh HTS OD600	rRNA inh HTS RFP	FGF22 binding	T cruzi inh	E coli growth	Beta cell apopt	UCH37 inh	A1 inh	AF4-AF9 inh
21	COc1ccc(NC(=O)CSc2nccn2Cc2ccccc2)cc1	-12	-7	4.3	i	0	0.7	-2	4.7	1.1	3.4
22	S=C(Nc1ccccc1Cl)NC1CCC(NC(=S)Nc2ccccc2Cl)CC1 (stereo not given)	-2	5	10	i	-35	0.69	16	1.1	-0.2	-2.5
23	CCOC(=O)Cn1c2ccc(OC)cc2c2nc3ccccc3nc21	.	.	.	.	0	0.69	.	1.0	0.7	.
24	COc1cccc(OC)c1C(=O)OCC(=O)N1CC(C)CC(C)C1 (stereo not given)	9	3	-1.1	i	.	0.7	-4	1.2	0.1	0.6
25	COCCSc1ccccc1C(=O)Nc1ccc([N+](=O)[O-])cc1OC	-5	-7	0.7	i	5	0.64	9	5.5	-0.1	0.5
26	CC(C)(C)N1C(=O)c2ccc(C(=O)Nc3ccc(C(=O)O)cc3)cc2C1=O	8	8	2.3	i	-13	0.65	2	1.7	0.3	2.6
27	OCCC#Cc1ccc(CN2CCN(Cc3ccsc3)C(CCO)C2)cc1 (stereo not given)	7	-2	2.0	.	27	0.7	.	2.1	0.4	0.0
28	O=c1/c(=C/c2ccc(CNS(=O)(=O)c3ccccc3)o2)sc2n1CCN=2	9	7	-0.3	i	6	.	-3	.	0.1	0.0
29	CN(C)C(=O)N1CCN(C(=O)c2ccccc2Sc2ccccc2C#N)CC1	.	.	.	.	6	0.66	10	4.2	0.3	.
30	COC(=O)CCCCC(=O)C1C(=O)CC(C)(C)C(C(=O)OC)C1=O (stereo not given)	.	.	.	.	-8	0.76	-4	4.8	-0.9	.
31	CCC(=O)Nc1cccc(NC(=S)NC(=O)c2ccc(Cl)cc2Cl)c1	.	.	.	.	-12	0.66	-3	3.1	0.1	.
32	C/[N+]([O-])=C\c1cccc(OCCN2CCN(c3ncc(C(F)(F)F)cc3Cl)CC2)c1	-4	-4	1.0	i	22	0.7	-3	2.1	-0.4	2.2
33	CCCCc1nc2sc3c(SCCN(C)C)ncnc3c2c2c1CCC2	-11	-11	11	i	35	0.64	-5	2.7	0.3	15
34	CCCn1nc(-c2nnc(-c3ccc(C)c(C)c3)o2)c2ccccc2c1=O	.	.	.	.	-3	0.69	-7	0.7	0.0	.
35	CCOc1ccc(NC(=O)NC2CCCCCCC2)cc1	4	6	0.8	i	.	0.68	5	1.3	-1.4	-3.7
36	CCCCC1(C)OC(=O)C(=Cc2ccc(N(C)C)cc2)C(=O)O1 (stereo not given)	.	.	.	.	-8	0.7	-2	-0.3	0.0	.
37	Cn1cnnc1SCCNS(=O)(=O)c1cccc([N+](=O)[O-])c1	3	6	-2.1	i	-11	0.67	.	0.6	0.9	1.1
38	COc1ccc(C2c3[nH]c4ccccc4c3C[C@H]3C(=O)N(C)CC(=O)N23)cc1OC (stereo not given in full)	8	8	-0.1	i	-23	0.68	-2	3.3	0.1	1.5
39	COCCn1c(C)cc(C(=O)COC(=O)c2ccc(S(=O)(=O)N(C)C)cc2)c1C	0	7	-0.1	i	.	0.68	-9	-1.2	0.1	0.1
40	CC(CNC(=O)c1ccccc1Cl)c1ccccc1 (stereo not given)	-5	-2	0.1	i	-12	0.67	-3	-1.4	1.0	-22

(listing goes on)
item	Molecule	rRNA inh HTS	rRNA inh HTS OD600	rRNA inh HTS RFP	FGF22 binding	T cruzi inh	E coli growth	Beta cell apopt	UCH37 inh	A1 inh	AF4-AF9 inh
41	CCN(C(=O)COC(=O)CNC(=O)c1ccc(C)c(C)c1)C1CCS(=O)(=O)C1 (stereo not given)	12	6	2.3	i	-3	0.69	0	0.3	0.3	-1.8
42	COC(=O)c1cnn2c(C)c(Cc3cccc(F)c3)c(C)nc12	-5	-4	-1.4	i	1	0.71	.	-73	.	-4.9
43	CCCCN(C(=O)c1ccc2c(c1)OCO2)C1CCS(=O)(=O)C1 (stereo not given)	4	0	0.3	i	4	0.7	-4	4.4	-0.8	-11
44	Cc1cc(OC(C)C(=O)NC2CC(C)(C)NC(C)(C)C2)c2c(C)cc(=O)oc2c1 (stereo not given)	0	1	-1.3	i	0	0.73	0	-155	-1.7	1.7
45	c1ccc(-c2ncc(CN3CCN(c4ccccn4)CC3)[nH]2)cc1	6	-6	6.2	i	21	0.65	-2	4.3	-0.7	-19
46	Cc1c(Cl)cccc1NC(=O)CC1SCCNC1=O (stereo not given)	.	.	.	.	-9	0.61	-7	2.2	-0.1	.
47	Cc1ccc(S(=O)(=O)N2CCN(C(=O)COC(=O)c3ccccc3OC(F)F)CC2)c(C)c1	-9	-10	3.6	i	.	0.65	.	-2.8	.	-0.8
48	Cc1ccc(C(=O)OC2CCN(c3ccc([N+](=O)[O-])cc3)CC2)cc1	.	.	.	.	-1	0.74	5	-0.3	0.9	.
49	CC(=O)Nc1ccc(S(=O)(=O)Nc2cc3c(cc2C(C)=O)OCO3)cc1	3	8	-0.7	i	-4	0.66	-7	4.8	-0.2	-0.4
50	COc1ccc(Cl)cc1C(=O)Nc1ccccc1N1CCCCC1	13	0	3.4	i	12	0.71	10	-4.1	-0.4	-17
51	COCCCNC(=S)Nc1ccc(S(=O)(=O)Nc2cc(OC)nc(OC)n2)cc1	-4	0	-3.7	i	-6	0.71	-6	1.2	0.9	-20
52	COc1ccc(-n2c(SCC(=O)Nc3ccc(C)cc3)nc(O)c(Cc3ccccc3)c2=O)cc1	1	3	-0.4	i	-17	0.74	-4	-0.3	0.2	0.8
53	CCc1cc2c(=O)oc(-c3ccccc3F)nc2s1	-19	-16	-1.1	i	-16	0.65	-1	-76	-2.8	6.6
54	O=[N+]([O-])c1cc(-c2ncccn2)cs1	9	2	10	i	50	0.6	-10	0.4	-0.3	-0.6
55	CCCC(=N)C1=C(O)CC(CC(C)SCC)CC1=O (stereo not given)	.	.	.	.	-3	0.78	5	0.0	1.2	.
56	CCOC(=O)C1=C(C)NC(C)=C(C(=O)OCC)C1C(=O)OCC(=O)NCc1ccc(F)cc1	-4	4	-2.5	i	.	0.68	4	-36	0.8	-1.9
57	Fc1ccc(N2CCN(/C=C/c3nnnn3-c3ccccc3)CC2)cc1	.	.	.	.	-6	0.66	3	2.2	0.4	.
58	CCCC(=O)Nc1cccc(NC(=O)c2ccc(C)c([N+](=O)[O-])c2)c1	.	.	.	.	7	0.58	-3	5.0	0.2	.
59	O=C(Nc1c[nH]c(=O)[nH]c1=O)c1ccccc1Cl	17	14	-0.2	i	-8	0.66	.	-0.2	-0.8	-0.5

A second format for some results above.
44) Cc1cc(OC(C)C(=O)NC2CC(C)(C)NC(C)(C)C2)c2c(C)cc(=O)oc2c1 (stereo not given)
45) c1ccc(-c2ncc(CN3CCN(c4ccccn4)CC3)[nH]2)cc1
46) Cc1c(Cl)cccc1NC(=O)CC1SCCNC1=O (stereo not given)
47) Cc1ccc(S(=O)(=O)N2CCN(C(=O)COC(=O)c3ccccc3OC(F)F)CC2)c(C)c1
48) Cc1ccc(C(=O)OC2CCN(c3ccc([N+](=O)[O-])cc3)CC2)cc1
assay / compound | 44 | 45 | 46 | 47 | 48
rRNA inh HTS | 0 | 6 | . | -9 | .
rRNA inh HTS OD600 | 1 | -6 | . | -10 | .
rRNA inh HTS RFP | -1.3 | 6.2 | . | 3.6 | .
FGF22 binding | i | i | . | i | .
T cruzi inh | 0 | 21 | -9 | . | -1
E coli growth | 0.73 | 0.65 | 0.61 | 0.65 | 0.74
Beta cell apopt | 0 | -2 | -7 | . | 5
UCH37 inh | -155 | 4.3 | 2.2 | -2.8 | -0.3
A1 inh | -1.7 | -0.7 | -0.1 | . | 0.9
AF4-AF9 inh | 1.7 | -19 | . | -0.8 | .
